Compound activity from PubChem BioAssay.
NOMO-1 viab = STK33 inhibitor candidate reducing NOMO-1 cell viability; NOMO-1 AML viability, CellTiter-Glo luminescence, 72 h; hit rate 7.5% among 37,000; AID 2330; inhibition, % (test concentration not listed);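 active means most replicates above 80%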;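 further: wells of about 30 µL received 25 nL stock; 0% = median of vehicle wells and 100% = reference inhibitor level; the first replicate is given; inactives centre near 10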
Starred values were filed as active, the others as inactive.

molecule | NOMO-1 viab
COc1ccc(S(=O)(=O)Nc2ccc3c(c2)C(=O)N([C@H](C)CO)C[C@@H](C)[C@@H](CN(C)C(=O)Nc2ccc(F)cc2)O3)cc1 | 42
C[C@@H]1CN([C@@H](C)CO)C(=O)c2cccc(N(C)C)c2O[C@H]1CN(C)C(=O)Nc1ccccc1 | 32
CC(=O)NCCc1nc2cc(NC(=O)c3ccccc3)ccc2n1C | -2
C[C@@H]1CN([C@@H](C)CO)C(=O)c2cc(NS(=O)(=O)c3cccs3)ccc2O[C@@H]1CN(C)S(=O)(=O)c1ccc(F)cc1 | 8
CC(C)NC(=O)N(C)C[C@H]1Oc2ccc(NC(=O)Cn3cnnn3)cc2CC(=O)N([C@@H](C)CO)C[C@@H]1C | -17
COc1ccc2[nH]cc(CCNC(=O)Nc3ccc(Cl)c(Cl)c3)c2c1 | -10
COc1ccccc1NC(=O)CSc1nc2cc3ccccc3cc2[nH]1 | 108*
CCOC(=O)c1c(NC(=O)c2nc3nc(C)cc(C(F)F)n3n2)sc2c1CCCC2 | 5

The list goes on, overlapping the part above by two compounds.
molecule | NOMO-1 viab
COc1ccccc1NC(=O)CSc1nc2cc3ccccc3cc2[nH]1 | 108*
CCOC(=O)c1c(NC(=O)c2nc3nc(C)cc(C(F)F)n3n2)sc2c1CCCC2 | 5
C[C@H]1CN([C@@H](C)CO)C(=O)c2cc(N(C)C)ccc2O[C@H]1CN(C)CC1CCCCC1 | -6
O=c1cc(-c2ccccc2)nc2cc(-c3ccccc3)[nH]n12 | 107*
COc1ccc(S(=O)(=O)N(C)C[C@@H]2Oc3c(NC(=O)c4cnccn4)cccc3C(=O)N([C@@H](C)CO)C[C@H]2C)cc1 | 13
Cc1noc(C)c1S(=O)(=O)Nc1ccc2c(c1)CC(=O)N([C@@H](C)CO)C[C@H](C)[C@H](CN(C)C(=O)Nc1ccccc1)O2 | -6
CCc1cc2c(SCC(=O)c3ccc(C)cc3)ncnc2s1 | 31
Cn1c(SCC(=O)n2c3c(c4ccccc42)CCCC3)nnc1-c1ccccc1 | 5
COc1ccc(-c2noc(CSc3nnc(C)n3-c3ccccc3)n2)cc1 | -16
CC1OC(OCC2OC(Oc3c(-c4ccc(O)cc4)oc4cc(O)cc(O)c4c3=O)C(O)C(O)C2O)C(O)C(O)C1O (centres undefined) | 19

The final 2 records of the section above open the next one:
molecule | NOMO-1 viab
COc1ccc(-c2noc(CSc3nnc(C)n3-c3ccccc3)n2)cc1 | -16
CC1OC(OCC2OC(Oc3c(-c4ccc(O)cc4)oc4cc(O)cc(O)c4c3=O)C(O)C(O)C2O)C(O)C(O)C1O (centres undefined) | 19
N#Cc1c(NC(=O)CCN2C(=O)c3ccccc3C2=O)sc2c1CCCC2 | -7
C[C@@H]1CN([C@@H](C)CO)C(=O)c2cc(NC(=O)Cn3cnnn3)ccc2O[C@H]1CN(C)S(=O)(=O)c1cn(C)cn1 | -1
O=c1c2c3c(sc2nc(SCc2nc4ccccc4[nH]2)n1-c1ccccc1)CCC3 | 62
CN(Cc1nc(-c2ccccn2)no1)S(=O)(=O)c1ccc(Cl)cc1 | 16
C[C@H]1CN([C@@H](C)CO)C(=O)c2cc(N(C)C)ccc2O[C@H]1CN(C)S(C)(=O)=O | -17
O=C(CC1NC2CCCCC2NC1=O)Nc1ccc(Cl)cc1 (centres undefined) | 22
C[C@H](CO)N1C[C@H](C)[C@H](CN(C)C(=O)Nc2ccc(F)cc2)Oc2c(NS(=O)(=O)c3cccs3)cccc2C1=O | 33
COc1ccc(C(=O)NC(=S)NCc2cccnc2)cc1[N+](=O)[O-] | -15

The final 2 compounds of the part before open the next one.
molecule | NOMO-1 viab
C[C@H](CO)N1C[C@H](C)[C@H](CN(C)C(=O)Nc2ccc(F)cc2)Oc2c(NS(=O)(=O)c3cccs3)cccc2C1=O | 33
COc1ccc(C(=O)NC(=S)NCc2cccnc2)cc1[N+](=O)[O-] | -15
C[C@@H]1CN([C@H](C)CO)C(=O)c2cc(NC(=O)Nc3ccc(C(F)(F)F)cc3)ccc2O[C@@H]1CN(C)CC1CC1 | 27
COC(=O)c1cc(OC)c(OC)cc1NC(=O)COc1ccc(Br)c(C)c1 | 21
CC(C)CNc1nc(SCC(N)=O)nc(N2CCOCC2)n1 | -9
C[C@H]1CN([C@@H](C)CO)C(=O)c2cc(NC(=O)c3ccncc3)ccc2O[C@H]1CN(C)Cc1ccccc1 | 32
COc1ccc(Cl)cc1NC(=O)CSc1nc(N)cc(=O)[nH]1 | 33
CC(=O)Nc1ccccc1C(=O)OCc1cccc(C(=O)c2ccccc2)c1 | 35
C[C@@H]1CN([C@@H](C)CO)C(=O)Cc2cc(NS(=O)(=O)c3cccs3)ccc2O[C@@H]1CN(C)C(=O)NC1CCCCC1 | 24
N#Cc1c(NC(=O)COc2ccc3c(-c4ccccc4)cc(=O)oc3c2)sc2c1CCC2 | 96*

The list continues:
molecule | NOMO-1 viab
C[C@H]1CN([C@@H](C)CO)C(=O)c2cc(NC(=O)NC3CCCCC3)ccc2O[C@@H]1CN(C)Cc1ccc(Cl)c(Cl)c1 | 75
C[C@@H]1CN([C@@H](C)CO)C(=O)c2cc(NC(=O)Nc3ccc4c(c3)OCO4)ccc2O[C@@H]1CN(C)C(=O)NC1CCCCC1 | 25
C[C@H](CO)N1C[C@H](C)[C@@H](CN(C)C(=O)Nc2ccc(F)cc2)Oc2ccc(NC(=O)C3CCCCC3)cc2C1=O | 1
O=C1CCCC(O)=C1C=Nc1cccc2ccccc12 | 43
C[C@H](CO)N1C[C@H](C)[C@H](CN(C)Cc2ccc(C(F)(F)F)cc2)Oc2ccc(NC(=O)Nc3ccc(F)cc3)cc2C1=O | 33
C[C@@H]1CN([C@H](C)CO)C(=O)c2cccc(N(C)C)c2O[C@H]1CN(C)S(=O)(=O)c1cn(C)cn1 | -11
CC(Oc1ccc(Br)cc1)C(=O)NCc1ccco1 (centres undefined) | 36
O=C(CSc1nnc(-c2ccc(Cl)cc2Cl)o1)Nc1ccc([N+](=O)[O-])cc1 | 32

New compounds follow.
molecule | NOMO-1 viab
Cc1cc2oc(C(=O)Nc3nnc(SCc4ccccc4)s3)c(C)c2cc1C | -5
C[C@@H]1CN([C@H](C)CO)C(=O)c2cccc(N(C)C)c2O[C@H]1CN(C)C(=O)Nc1ccc(C(F)(F)F)cc1 | 22
S=C(NCc1ccco1)NCC1CCCO1 (centres undefined) | 19
C[C@@H]1CN([C@H](C)CO)C(=O)c2cccc(NS(C)(=O)=O)c2O[C@H]1CN(C)C | 17
CC(C)NC(=O)N(C)C[C@H]1Oc2c(NC(=O)c3nc4ccccc4s3)cccc2C(=O)N([C@@H](C)CO)C[C@@H]1C | -1
c1ccc(-c2nnc(-c3cccc4ccccc34)o2)cc1 | 27
C[C@H]1CN([C@@H](C)CO)C(=O)Cc2cc(NC(=O)NC3CCCCC3)ccc2O[C@H]1CN(C)Cc1ccncc1 | -7
C/C=C1/[C@H](O[C@@H]2O[C@H](CO)[C@@H](O)[C@H](O)[C@H]2O)OC=C(C(=O)OC)[C@H]1CC(=O)OCC(C)[C@@H]1C[C@H]2OC(=O)C3=CO[C@@H](O[C@@H]4O[C@H](CO)[C@@H](O)[C@H](O)[C@H]4O)/C(=C/C)[C@@H]3CC(=O)OC[C@@H]1[C@H]2C (some centres undefined) | 20

A portion from the list above:
molecule | NOMO-1 viab
c1ccc(-c2nnc(-c3cccc4ccccc34)o2)cc1 | 27
C[C@H]1CN([C@@H](C)CO)C(=O)Cc2cc(NC(=O)NC3CCCCC3)ccc2O[C@H]1CN(C)Cc1ccncc1 | -7
C/C=C1/[C@H](O[C@@H]2O[C@H](CO)[C@@H](O)[C@H](O)[C@H]2O)OC=C(C(=O)OC)[C@H]1CC(=O)OCC(C)[C@@H]1C[C@H]2OC(=O)C3=CO[C@@H](O[C@@H]4O[C@H](CO)[C@@H](O)[C@H](O)[C@H]4O)/C(=C/C)[C@@H]3CC(=O)OC[C@@H]1[C@H]2C (some centres undefined) | 20

Further compounds.
mol | NOMO-1 viab
Cc1noc(C)c1NC(=O)N(C)C[C@H]1Oc2c(cccc2N(C)C)C(=O)N([C@H](C)CO)C[C@@H]1C | 30
COc1ccc(NC(=O)N(C)C[C@@H]2Oc3ccc(NS(=O)(=O)c4ccccc4)cc3CC(=O)N([C@H](C)CO)C[C@H]2C)cc1 | 5
Cc1ccnc(NS(=O)(=O)c2ccc(NC(=O)c3csc4c3CCCC4)cc2)n1 | -3
COc1ccc(NC(=O)Nc2ccc3c(c2)C(=O)N([C@@H](C)CO)C[C@H](C)[C@@H](CN(C)S(=O)(=O)c2ccc(F)cc2)O3)cc1 | 21
Nc1ncnc(Sc2nc3ccccc3s2)c1[N+](=O)[O-] | 114*
C[C@@H]1CN([C@@H](C)CO)C(=O)c2cccc(NC(=O)Nc3ccc(F)cc3)c2O[C@@H]1CN(C)S(=O)(=O)c1cccs1 | 29
CC(C)NC(=O)N(C)C[C@H]1Oc2ccc(NC(=O)CCCCCC(=O)Nc3ccccc3N)cc2C(=O)N([C@@H](C)CO)C[C@@H]1C | -11
C[C@H](CO)N1C[C@H](C)[C@@H](CN(C)S(=O)(=O)c2ccc(Cl)cc2)Oc2c(NC(=O)C3CC3)cccc2C1=O | 22
Cc1noc(C)c1NC(=O)Nc1ccc2c(c1)C(=O)N([C@@H](C)CO)C[C@@H](C)[C@@H](CN(C)Cc1ccc(Oc3ccccc3)cc1)O2 | 78
C[C@@H]1CN([C@@H](C)CO)C(=O)Cc2cc(NC(=O)C3CC3)ccc2O[C@@H]1CN(C)Cc1ccc(Cl)c(Cl)c1 | 44
CC1(C)Cc2c(sc3nc(SCC(=O)c4ccccc4)nc(N)c23)CS1 | 27
CCn1c(SCC(=O)Nc2ccc(F)cc2)nnc1-c1cccs1 | -21
Cn1c(CN2CCOCC2)nnc1SCC(=O)Nc1ccc2ccccc2c1 | 34
C[C@@H]1CN([C@H](C)CO)C(=O)c2cc(NC(=O)Cc3cn(C)c4ccccc34)ccc2O[C@@H]1CN(C)S(C)(=O)=O | 9
CC(=O)N[N+]1=C(N)c2ccccc2C1 | -4
COc1cc2c(=O)c(-c3ccc(O)cc3)coc2cc1O[C@@H]1O[C@@H](C)[C@H](O)[C@@H](O)[C@H]1O | 27
C[C@H](CO)N1C[C@H](C)[C@H](CN(C)C(=O)NC2CCCCC2)Oc2ccc(NS(C)(=O)=O)cc2CC1=O | 21
CCC(=O)c1ccc2cc(OC)ccc2c1 | 15
Cc1cc(C(=O)Nc2cccc3c2O[C@H](CN(C)Cc2ccc(C(=O)O)cc2)[C@H](C)CN([C@@H](C)CO)C3=O)n(C)n1 | 17
CC(=O)Nc1ccc(-c2nnc(SCC(=O)Nc3ccc(Cl)cc3Cl)n2C)cc1 | 16
Cc1cc(C(F)F)n2nc(C(=O)Nc3cccc(S(=O)(=O)N4CCOCC4)c3)nc2n1 | -16
C[C@@H]1CN([C@H](C)CO)C(=O)Cc2cc(NC(=O)CCC(F)(F)F)ccc2O[C@@H]1CN(C)Cc1ccc(C(=O)O)cc1 | -12
C[C@H]1CN([C@@H](C)CO)C(=O)c2cc(NC(=O)C3CCCCC3)ccc2O[C@@H]1CN(C)S(C)(=O)=O | 22
C[C@@H]1CN([C@@H](C)CO)C(=O)Cc2cc(NC(=O)Cn3cnnn3)ccc2O[C@@H]1CN(C)C(=O)Nc1ccccc1 | 21
COc1cccc(C2=NN(C(=O)c3onc(-c4ccccc4Cl)c3C)C(c3ccco3)C2)c1 (centres undefined) | 37
C[C@H]1CN([C@@H](C)CO)C(=O)Cc2cc(NC(=O)Nc3ccc(F)cc3)ccc2O[C@@H]1CN(C)S(C)(=O)=O | 5
Cc1noc(C)c1S(=O)(=O)Nc1ccc2c(c1)C(=O)N([C@H](C)CO)C[C@@H](C)[C@H](CN(C)C(=O)Nc1ccc(F)cc1)O2 | 12
N#Cc1c(NC(=O)CCn2cnc3ccccc3c2=O)oc(-c2ccccc2)c1-c1ccccc1 | 4
C[C@H](CO)N1C[C@H](C)[C@@H](CN(C)Cc2ccccc2)Oc2c(NS(C)(=O)=O)cccc2C1=O | 5
Cc1ccc([N+](=O)[O-])cc1NC(=O)c1ccc(NC(=O)C2(c3ccccc3)CCOCC2)cc1 | -50

(further entries)
mol | NOMO-1 viab
C[C@@H]1CCCCO[C@H](CN(C)Cc2ccc(C(F)(F)F)cc2)[C@@H](C)CN([C@H](C)CO)C(=O)c2cc(NS(=O)(=O)c3cn(C)cn3)ccc2O1 | 31
C[C@@H]1CN([C@H](C)CO)C(=O)c2cc(NC(=O)Nc3ccccc3)ccc2O[C@H]1CN(C)S(=O)(=O)c1ccc(F)cc1 | -13
CCOC(=O)C1=C[C@@H](OC(CC)CC)[C@H](NC(C)=O)[C@@H](N)C1 | 21
C[C@@H]1CN([C@H](C)CO)C(=O)c2cc(NS(=O)(=O)c3cccs3)ccc2O[C@@H]1CN(C)C(=O)Nc1ccccc1 | 17
Cc1noc(C)c1NC(=O)N(C)C[C@@H]1OCCCC[C@@H](C)Oc2ccc(N(C)C)cc2C(=O)N([C@H](C)CO)C[C@@H]1C | -15
COc1ccc(NC(=O)N(C)C[C@@H]2Oc3c(NC(=O)c4cc(C)nn4C)cccc3C(=O)N([C@@H](C)CO)C[C@H]2C)cc1 | 7
COc1ccc(S(=O)(=O)NCc2ccccn2)c(C)c1C | -8
Cc1cc2nnc(SCC(=O)Nc3sc4c(c3C#N)CCC4)n2c2ccccc12 | -18
COc1ccc(S(=O)(=O)N(C)C[C@@H]2Oc3ccc(NS(=O)(=O)c4ccc(F)cc4)cc3CC(=O)N([C@H](C)CO)C[C@H]2C)cc1 | -2
C[C@@H]1CN([C@@H](C)CO)C(=O)c2cc(NC(=O)C3CCCCC3)ccc2O[C@H]1CN(C)S(=O)(=O)c1ccc(Cl)cc1 | -8
O=c1cc(-c2ccccc2)nc(SCc2nc3ccccc3[nH]2)[nH]1 | -3
O=C(COc1cc(O)c2c(=O)c3ccccc3oc2c1)c1ccc(Br)cc1 | 57
C[C@H](CO)N1C[C@H](C)[C@H](CN(C)Cc2ccc(Cl)c(Cl)c2)Oc2c(NC(=O)NC3CCCCC3)cccc2C1=O | 72
C[C@@H]1CN([C@@H](C)CO)C(=O)c2cccc(NS(C)(=O)=O)c2O[C@@H]1CN(C)CC1CC1 | 13
C[C@H](CO)N1C[C@H](C)[C@H](CN(C)Cc2ccc(C(=O)O)cc2)Oc2c(NC(=O)Nc3ccc(C(F)(F)F)cc3)cccc2C1=O | 29

Some of the compounds tested, so the mix of outcomes need not match the whole.
